From PubChem BioAssay
Rango dissoc inh: inhibition of RanGTP-driven Rango-importin beta dissociation; Potency, µM (highest dose often 46.1 µM), without a hit: at the top dose activity change, negative = inhibition; AID 540253; 0.071% of 340,000 active; Biochemical FRET Rango-importin beta, RanGTP-induced dissociation; active means falling FRET ratio curve, often poorly fitted, with flat reads before Ran was added; inconclusive means other falling curves, or compound fluorescence or quenching; inactive means flat or rising ratio curve;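 further: potency means the concentration at half of the fitted maximal effect; % of control where 0% means no effect; nearly all actives have a fitted effect of over 45% in size; -100% = wells without RanGTP and RCC1; the record marks most hits as doubtful in a second field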
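Compounds sat 5 min at room temperature with 0.1 uM Rango biosensor plus 0.25 uM importin beta, then FRET pre-read. RanGTP-RCC1 (0.6 uM Ran, 2mM GTP, 0.2 uM RCC1) added for 45 min, and the CFP/YFP post-read measured blocked complex dissociation.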
miR-21 reporter: raises the signal of a miR-21 reporter. 340,000 tested, under 10 active. Potency, µM (series often up to 38.3 µM), without a hit: at the highest dose reporter change, positive = more light. HeLa miR-21 FLuc reporter, luciferase, 48 h; active = well fitted rising curve with a large enough effect; inconclusive = small, poorly fitted or top-dose-only effect; inactive = no such curve, though single readings can be large or run the other way;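 further: % of control where 0% means no effect; miR-21 action dims this reporter so a rising signal means less miR-21 action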
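HeLa cells stably expressing CMV-driven firefly luciferase with a downstream miR-21 binding sequence, endogenously expressing miR-21, were treated with titrations (up to about 40uM final) for 48 hours at 37 degree Celsius. Luciferase luminescence was read after lysis.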
GLA inh pH 4.5: blocks human alpha-galactosidase A at pH 4.5 | activity change, negative = inhibition, % at 105 µM | purified enzyme, 4-MU-alpha-Gal fluorescence, pH 4.5 | 230,000 tested, under 10 active | P06280 | AID 1467; inconclusive = small, poorly fitted or top-dose-only inhibition, or a rising curve; inactive = flat fitted curve, though single readings scatter; no compound was filed as active;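 further: 0% = full activity with enzyme and -100% = basal without enzyme; dose as in the result columns while the protocol names 77 µM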
Target sequence (P06280 whole entry, looked up): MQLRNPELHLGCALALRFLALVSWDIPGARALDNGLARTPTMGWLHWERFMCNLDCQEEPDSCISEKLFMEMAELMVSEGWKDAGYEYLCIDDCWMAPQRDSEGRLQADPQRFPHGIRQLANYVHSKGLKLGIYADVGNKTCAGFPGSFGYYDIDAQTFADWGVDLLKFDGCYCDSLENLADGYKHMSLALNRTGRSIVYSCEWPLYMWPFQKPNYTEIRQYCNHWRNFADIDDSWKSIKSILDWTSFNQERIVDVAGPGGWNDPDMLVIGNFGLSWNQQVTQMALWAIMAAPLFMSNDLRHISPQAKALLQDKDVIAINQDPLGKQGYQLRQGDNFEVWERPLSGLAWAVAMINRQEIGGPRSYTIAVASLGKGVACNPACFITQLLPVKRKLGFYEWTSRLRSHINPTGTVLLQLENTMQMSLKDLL
Rango complex inh: prevents formation of the Rango-importin beta complex. Q14974. Rango CFP/YFP FRET sensor + importin beta, 45 min. Potency, µM (titrated, usually from 92.2 µM), inactives show at the top dose inhibition of complex formation. 0.031% of 340,000 active; active = rising FRET ratio curve, often small or poorly fitted; inconclusive = mostly compound fluorescence or quenching in the first reads; inactive = flat curves in all reads;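 further: potency means the concentration at half of the fitted maximal effect; 0% = DMSO wells and 100% = buffer wells lacking importin beta; nearly all actives have a fitted effect of over 15% in size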
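FRET biosensor Rango (snurportin 1 IBB between N-terminal EYFP and C-terminal Cerulean), 50 nM in PBS/1 mM DTT/0.02% Tween-20/0.1% BSA, preincubated 5 min RT with compound; 0.125 microM importin beta added, 45 min RT, CFP/YFP FRET ratio read.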
The depositor's hits bear a star; ? = inconclusive; / = no result given; & = joins results of further samples; [ ] = remark or other dose. This is a subset, so the mix of outcomes need not match the whole.

Structure | Rango dissoc inh | miR-21 reporter | GLA inh pH 4.5 | Rango complex inh
Cc1cc(C)cc(OCC(=O)NCc2cc(C)nc3ccccc23)c1 | -13% | 1% | 9 | ?
Cc1ccc(-c2n[nH]c(=S)n2C)cc1Cl | -10% | -10% | 12 | -1.7%
O=C1CC(NNc2ccccc2)C(=O)N1c1cccc(Cl)c1 (stereo not drawn) | 22% | -6% | 7 | 0.9%
CC1Cc2ccccc2N1C(=O)COC(=O)c1cc(Br)ccc1O (stereo not drawn) | 25% | / | / | 1.2%
CNC(=O)C(=O)NCC1OCCN1S(=O)(=O)c1ccc([N+](=O)[O-])cc1 (stereo not drawn) | 10% | 2% | 8 | 2.9%
Cc1noc(C(=O)NCc2ccco2)c1Cl | 23% | -6% | 4 | -0.1%
O=C(CSc1nc2ccccc2c(=O)[nH]1)Nc1nc(-c2ccc(Br)cc2)cs1 | 0% | -4% | / | -5.5%
Cc1ccc(S(=O)(=O)CCc2nnc(NC(=O)C3CCCO3)s2)cc1 (stereo not drawn) | 18% | 1% | 7 | -2.9%

Complete entries as entered above. Values in the order: Rango dissoc inh	miR-21 reporter	GLA inh pH 4.5	Rango complex inh
O=C(CSc1nc2ccccc2c(=O)[nH]1)Nc1nc(-c2ccc(Br)cc2)cs1 as listed: 0%	-4%	/	-5.5%
CC1Cc2ccccc2N1C(=O)COC(=O)c1cc(Br)ccc1O (stereo not drawn) as listed: 25%	/	/	1.2%
O=C1CC(NNc2ccccc2)C(=O)N1c1cccc(Cl)c1 (stereo not drawn) as listed: 22%	-6%	7	0.9%
Cc1noc(C(=O)NCc2ccco2)c1Cl as listed: 23%	-6%	4	-0.1%
Cc1ccc(S(=O)(=O)CCc2nnc(NC(=O)C3CCCO3)s2)cc1 (stereo not drawn) as listed: 18%	1%	7	-2.9%

(list continues)
Structure | Rango dissoc inh | miR-21 reporter | GLA inh pH 4.5 | Rango complex inh
Cc1ccc(-n2c(-c3ccccc3)nnc2-c2cccs2)cc1 | -7% | -9% | 2 | -0.1%
CN(Cc1ccccc1F)c1ncnc2sccc12 | -15% | 1% | / | -0.2%
COc1ccc(CCN(C(=O)c2snc(C(N)=O)c2N)C(C(=O)NCC2CCCO2)c2ccc(F)cc2)cc1OC (stereo not drawn) | -8% | 1% | / | -0.9%
COc1ccc(C2CCCN2C(=S)Nc2ccc(C)c(C)c2)cc1OC (stereo not drawn) | 22% | 0% | -10[21.1 µM] | 2.3%
Cc1nc(N2CCOCC2)nc(N2CCCCC2)c1[N+](=O)[O-] | -12% | -18% | 0 | -0.4%
O=C(c1ccc2c(=O)n(Cc3ccco3)c(=S)[nH]c2c1)N1CCN(Cc2ccccc2)CC1 | -6% | 5% | -7 | -6.1%
COc1ccc(CNc2oc(COc3ccc(Cl)cc3)nc2C#N)cc1 | 1% | -1% | -5 | 0.4%
CC(C)c1cc(C(=O)NNC(=S)NCc2ccco2)c(O)c(C(C)C)c1 | -11% | 28% | -9 | 2.9%

Three records picked at random from those above, as already listed:
Structure | Rango dissoc inh | miR-21 reporter | GLA inh pH 4.5 | Rango complex inh
CC(C)c1cc(C(=O)NNC(=S)NCc2ccco2)c(O)c(C(C)C)c1 | -11% | 28% | -9 | 2.9%
Cc1nc(N2CCOCC2)nc(N2CCCCC2)c1[N+](=O)[O-] | -12% | -18% | 0 | -0.4%
COc1ccc(CCN(C(=O)c2snc(C(N)=O)c2N)C(C(=O)NCC2CCCO2)c2ccc(F)cc2)cc1OC (stereo not drawn) | -8% | 1% | / | -0.9%

The list goes on.
Structure | Rango dissoc inh | miR-21 reporter | GLA inh pH 4.5 | Rango complex inh
CCN(CC)CCn1c(NS(=O)(=O)c2ccc(C)cc2)nc2ccccc21 | 8% | / | / | 1.2%
N#Cc1c(NCCCO)nc(-c2ccco2)c2c1CCCC2 | ? | -8% | 20 | ?
O=C(COC(=O)Cc1ccsc1)NCC12CC3CC(CC(C3)C1)C2 | -1% | -20% | 0 | 1.4%
CNC(=S)Nc1cc(OC)ccc1OC | -1% | -4% | -6 | ?
CCOC(=O)Cc1cc(-c2ccc(OC)cc2)nc2ccc3ccccc3c12 | 1% | -10% | 1 | -4.2%
C/C(=N\NC(=S)NC(C)C)c1ccc(Cl)c([N+](=O)[O-])c1 | -2% | -2% | 7 | -0.4%
O=c1[nH]c(CSc2ncc(C(F)(F)F)cc2Cl)nc2ccccc12 | 7% | -32% | -3 | -4.4%
CNc1oc(-c2ccc(OCc3ccccc3)cc2)nc1C#N | 0% | -35% | -7 | 0.8%

Further results follow.
Structure | Rango dissoc inh | miR-21 reporter | GLA inh pH 4.5 | Rango complex inh
CC1(C)CN=C(N2CCN(C3=NCC(C)(C)S3)CC2)S1 | / | -6% | 11 | /
Cc1cc(CN(C)C(=O)c2ccc3nc(Cc4ccccc4F)oc3c2)on1 | ? | -51% | / | 1.9%
COc1ccccc1NC(=O)CC(c1ccc(F)cc1)c1ccco1 (stereo not drawn) | 5% | -5% | -13 | -2.4%
COC(=O)c1nccnc1N | -5% | / | / | -0.9%
Cc1ccc2occ(/C=N/NC(=O)c3ccc(O)cc3)c(=O)c2c1 | -5% | 17% | / | -0.5%
CC1CCCCC1NC(=O)Cn1cnc2c1c(=O)n(C)c(=O)n2C (stereo not drawn) | 0% | / | / | -0.7%
COc1ccc(-n2nnnc2SC(C)C(N)=O)cc1 (stereo not drawn) | 4% | 1% | -2 | 5.0%
COc1ccc2cc(CN(CC3COCCO3)S(=O)(=O)c3c(C)cc(C)cc3C)c(=O)[nH]c2c1 (stereo not drawn) | / | -2% | 4 | /

Next part
Structure | Rango dissoc inh | miR-21 reporter | GLA inh pH 4.5 | Rango complex inh
COC(=O)[C@@H](NC(=O)Nc1ccc(OC)cc1)C(C)C | 0% | -2% | -8 | 3.0%
CCCCNC(=O)c1onc(CSc2ccc(OC)cc2)c1C(=O)O | -17% | -1% | 3 | 3.9%
O=C(N/N=C1\CCc2ccccc21)c1ccncc1 | 3% | -59% | 1 | -0.5%
O=C(Nc1ccccc1F)c1ccc(CSc2ncccn2)cc1 | 3% | -46% | -2 | 8.8%
CN(C)S(=O)(=O)c1ccc(C(=O)Nc2nnc(SCc3cccc(F)c3)s2)cc1 | -24% | 0% | 1 | -2.5%
COc1ccc(CC(=O)Nc2c3c(nn2-c2cccc(Cl)c2)CS(=O)(=O)C3)cc1 | -1% | -7% | -4 | 0.8%
COC(=O)[C@H](C)NC(=O)NCc1ccc(F)cc1 | ? | -5% | -6 | ?
Nc1cccc(-c2cc3ccccc3oc2=O)c1 | -10% | -15% | 6 | 0.2%

Further structures:
Structure | Rango dissoc inh | miR-21 reporter | GLA inh pH 4.5 | Rango complex inh
CCOc1ccc(C(=O)CCC(=O)NNC(=O)c2ccccc2O)cc1 | 9% | / | / | -0.9%
Cc1cc(C(=O)Nc2ccc(S(=O)(=O)N3CCOCC3)cc2)c(C)o1 | 2% | 0% | -1 | -2.6%
COc1ccc(O)c(-c2[nH]ncc2C(=O)c2cccc(C)c2)c1 | -2% | 4% | / | -0.4%
COc1ccccc1C(=O)Nc1ccnn1C1CCN(Cc2csc(C(C)=O)c2)CC1 | 8% | -4% | / | -0.2%
Nc1ccccc1SCC(=O)Nc1cccc2ccccc12 | -13% | -12% | / | 2.9%
COc1cccc(NS(=O)(=O)c2c(C)n(C)c(=O)n(C)c2=O)c1 | -5% | 2% | -20 | -0.3%
Cc1c(C(=O)NCc2ccccn2)sc2nc(-c3ccc(F)cc3)cn12 | -13% | -4% | -1 | 0.8%
COCCn1c(NCc2ccc(C)cc2)nc2c1c(=O)[nH]c(=O)n2C | -8% | -19% | 2 | 1.8%

Only Rango dissoc inh, Rango complex inh and GLA inh pH 4.5, for some of the entries so far:
molecule,Rango dissoc inh,Rango complex inh,GLA inh pH 4.5
Cc1c(C(=O)NCc2ccccn2)sc2nc(-c3ccc(F)cc3)cn12,-13%,0.8%,-1
COc1ccccc1C(=O)Nc1ccnn1C1CCN(Cc2csc(C(C)=O)c2)CC1,8%,-0.2%,/
COc1ccc(O)c(-c2[nH]ncc2C(=O)c2cccc(C)c2)c1,-2%,-0.4%,/

(cont.)
Structure | Rango dissoc inh | miR-21 reporter | GLA inh pH 4.5 | Rango complex inh
COc1ccccc1NC(=O)N(CCN(C)C)Cc1cc2cc(C)ccc2[nH]c1=O | 3% | 1% | -7 | 1.7%
COc1cccc2cc(C(=O)OCC(=O)NC3CCCC(C)C3C)c(=O)oc12 (stereo not drawn) | -2% | / | / | -1.3%
OCCCN1CCN(CCOc2ccccc2-c2ccccc2)CC1 | 14% | -17% | 1 | -2.0%
CCOC(=O)N1CCN(Cc2nc3cc(NC(C)=O)ccc3n2CC)CC1 | 17% | 0% | / | 4.9%
Cn1c(-c2ccccc2)cnc1N | -7% | -49% | -18 | 1.3%
O=C1c2ccccc2C(=O)N1CCCCc1cn(C[C@H]2CC[C@@H]([C@@H]3CC[C@H](Cn4cc(CCCCN5C(=O)c6ccccc6C5=O)nn4)O3)O2)nn1 | -10% | / | / | -0.2%
COc1ccc(N(C(=O)c2ccco2)S(=O)(=O)c2cccc([N+](=O)[O-])c2)cc1 | 16% | -2% | 3 | 0.1%
Cn1cc(CN2CCC(C(=O)N3CCCC3)CC2)c(-c2ccccc2F)n1 | 2% | 0% | 5 | 1.1%

(next part)
Structure | Rango dissoc inh | miR-21 reporter | GLA inh pH 4.5 | Rango complex inh
Cc1cc(C)n2[nH]c(=O)c(N=Nc3cccc(C(F)(F)F)c3)c2n1 | 0% | 1% | 0 | 3.9%
CC1=C(n2nnc3ccccc32)C(c2ccccc2)C(C#N)=C(N)O1 (stereo not drawn) | -24% | 2% | -11 | ?
C/C(NC1CCCC1)=C(/C#N)C(N)=O | -16% | -1% | 0 | -1.6%
CCn1c2ccccc2c2cc(/C=N/NC(=O)c3ccncc3)ccc21 | -17% | 19% | 3 | -6.6%
CCCCCCn1cc(C(=O)O)c(=O)c2cc(F)c(N3CCN(C(=O)OCC)CC3)cc21 | -7% | -1% | / | -0.1%
CCN(CC)CCCC(C)Nc1nccc2c(Cl)cccc12 (stereo not drawn) | ? | / | / | -3.3%
O=c1ccc2cc([N+](=O)[O-])c(CCO)cc2o1 | 2% | 1% | / | 1.8%
CCN1CCN(c2nc(Nc3cc(OC)ccc3OC)nc(Nc3cc(OC)ccc3OC)n2)CC1 | 0% | 0% | -18 | 0.1%

Later entries
Structure | Rango dissoc inh | miR-21 reporter | GLA inh pH 4.5 | Rango complex inh
Cc1cccc2cc(C#N)c(SCC(=O)NNC(=O)Cc3ccccc3)nc12 | -11% | 0% | 0 | -0.6%
O=C(Cc1cccc2ccccc12)NCCOc1ccccc1F | 0% | -10% | -1 | 3.1%
Cn1cc(C(=O)C(=O)NC2CC2)c2ccccc21 | 2% | / | / | ?
Cc1ccc(CNC(=O)C2CCN(S(=O)(=O)c3cccc4nonc34)CC2)cc1 | -2% | 1%&-3% | / | -0.6%
CC(C)CC(=O)CN1C(=O)C2(OCCO2)c2ccccc21 | 2% | -3% | 9 | 0.6%
CNC(=O)c1[nH]cnc1C(=O)N[C@@H](Cc1ccccc1)C(=O)OC(C)(C)C | 2% | 4% | 2 | -5.2%
O=C(CN1C(=O)NC2(CCCCCC2)C1=O)NCc1ccccc1 | -16% | / | / | 7.7%
CCn1ncc(/C=N/O)c1C | 6% | 12% | 5 | -1.7%
